Compound activity from PubChem BioAssay.
FGF22 binding: binders of human FGF22 protein, primary screen, FGF22 synaptogenesis inhibitor project, biophysical, thermal shift, single point | Fibroblast growth factor 22 (Homo sapiens), Q9HCT0 | recombinant FGF22 thermal shift, SYPRO orange fluorescence; percent of sucrose octasulfate shift, DMSO zero | calls only at 9.99 µM | 340,000 compounds, 1.5% hits;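 active means melting point raised past a set limit in the mean and every replicate; inconclusive means no clear call; three in four hits are not shown here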
UCH37 inh: inhibitors of human UCH37 deubiquitinase, primary screen, biochemical, Ub-AMC cleavage, fluorescence; Ubiquitin carboxyl-terminal hydrolase isozyme L5 (Homo sapiens), Q9Y5K5; purified proteasome/UCH37; inhibition, % (concentration not given with the values); 330,000 compounds, 0.33% hits; AID 588478, 2011;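 active means mean of two replicates above 20%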;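 further: 0% = compound-free wells with enzyme and 100% = wells lacking proteasome; stock transfer was 100 nL into about 20 µL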
Target sequence (Q9Y5K5 whole entry, looked up): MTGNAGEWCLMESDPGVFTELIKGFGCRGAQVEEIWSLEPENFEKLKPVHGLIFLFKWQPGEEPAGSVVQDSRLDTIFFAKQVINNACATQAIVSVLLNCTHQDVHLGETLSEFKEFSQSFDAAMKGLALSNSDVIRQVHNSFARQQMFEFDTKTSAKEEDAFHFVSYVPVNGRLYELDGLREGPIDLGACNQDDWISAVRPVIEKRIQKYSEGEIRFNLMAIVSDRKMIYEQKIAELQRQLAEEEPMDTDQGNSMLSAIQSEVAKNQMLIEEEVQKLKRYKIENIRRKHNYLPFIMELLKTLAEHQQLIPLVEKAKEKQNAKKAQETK
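system = Proteasome-associated human UCH37 deubiquitinase | amount = 0.15 nM proteasome as dispensed | medium = pH 7.4 Tris-HCl (50 mM) with ovalbumin, ATP-MgCl2, DTT | incubation = 30 min preincubation with enzyme, 25 min cleavage at room temperature | detection = AMC fluorescence 355/460 nm | read-out basis = percent inhibition | controls = no-proteasome and no-compound wells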
Ecoli growth: E. coli growth inhibition, primary screen, OD600 | Escherichia coli growth, 23 h; active compounds read low | OD600 absorbance (test concentration not listed) | 330,000 compounds, 0.21% hits;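 active means OD600 absorbance below the run mean of sample wells minus 3.6 SD, in any replicate, cut at about 0.56 in these data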;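 further: stock transfer was 300 nL into about 60 µL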
LANA-H2B inh: blockers of LANA interaction with H2A/H2B – biochemical, FP readout, HTS, primary screen. AID 2629, 2010. inhibition, % (test concentration not listed). cell-free LANA-H2A/H2B peptide, fluorescence polarization. 320,000 compounds, 0.6% hits. Protein LANA1 (Human herpesvirus 8 type P (isolate GK18)), Q9QR71; in the data active means inhibition mostly above about 10%, no sharp cut-off; inactive means mostly below about 6.7%;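 further: stock transfer was 7.5 nL into about 10 µL; 0% = median of vehicle wells and 100% = median of positive control wells; one replicate is shown; the record names a cut of 25% in any replicate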
ALR H2O2 inh: inhibitors of human ALR sulfhydryl oxidase, primary screen, biochemical, H2O2 detection, HRP-luminol luminescence, single point | FAD-linked sulfhydryl oxidase ALR (Homo sapiens), P55789 | purified ALR, DTT oxidation | inhibition, % (concentration not given with the values) | 290,000 compounds, 3.8% hits | AID 485317, 2010;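 active means mean and each replicate at 75% or more; inconclusive means only one of the two met; inactive means neither met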;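 further: stock transfer was 7.5 nL into about 7.5 µL; 0% = neutral wells and 100% = wells with inactivated enzyme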
Target sequence (P55789 whole entry, looked up): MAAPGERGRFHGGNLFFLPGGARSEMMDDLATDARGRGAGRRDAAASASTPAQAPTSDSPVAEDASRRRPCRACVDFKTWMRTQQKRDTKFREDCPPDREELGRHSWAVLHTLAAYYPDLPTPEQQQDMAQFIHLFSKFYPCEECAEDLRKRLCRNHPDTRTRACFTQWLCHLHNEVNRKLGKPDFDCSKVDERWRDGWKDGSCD
HNF4A DNA FP: change in binding of human HNF4A to DNA, primary screen, biochemical, fluorescence polarization, FITC-DNA | Hepatocyte nuclear factor 4-alpha (Homo sapiens), P41235 | 1 h | activity change, % at 10 µM | 360,000 compounds, 0.3% hits; in the data active means activity change above about 30%, passing the limit was not always enough;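 further: controls were the assay level and a saturating level of protein; the project sought stronger binding though the title names inhibitors; some compounds called inactive have numbers as strong as hits; positive values seem to mean higher polarization but the record does not say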
Target sequence (P41235 whole entry, looked up): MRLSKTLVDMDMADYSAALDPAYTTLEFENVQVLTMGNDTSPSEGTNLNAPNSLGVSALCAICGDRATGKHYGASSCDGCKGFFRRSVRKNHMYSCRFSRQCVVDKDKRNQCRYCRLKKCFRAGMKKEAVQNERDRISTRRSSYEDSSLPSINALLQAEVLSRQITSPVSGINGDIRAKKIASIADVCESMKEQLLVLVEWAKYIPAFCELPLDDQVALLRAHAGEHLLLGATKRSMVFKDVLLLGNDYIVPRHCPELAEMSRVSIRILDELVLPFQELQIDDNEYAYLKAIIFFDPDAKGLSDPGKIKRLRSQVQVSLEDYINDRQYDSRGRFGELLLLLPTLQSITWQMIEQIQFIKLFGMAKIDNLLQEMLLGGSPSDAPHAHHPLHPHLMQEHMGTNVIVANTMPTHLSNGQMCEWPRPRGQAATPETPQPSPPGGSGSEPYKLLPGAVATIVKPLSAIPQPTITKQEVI
Beta2AR agonist: beta2AR agonists driving receptor internalization, primary screen, cell-based, FAP fluorogen, flow cytometry; Am2.2-beta2AR cells; reference of the scale not given here; response, % (concentration not given with the values); Beta-2 adrenergic receptor (Homo sapiens), P07550; 340,000 compounds, 0.43% hits;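 active means response above a set limit, near 3 SD of response in nonfluorescent compounds, cut at about 42% in these data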;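 further: stock transfer was 100 nL into about 11 µL; a reference agonist was the positive control; negative values mostly stem from fluorescent compounds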
Active calls of the source: *; i = inactive; ? = inconclusive; . = not tested or not shown; & = joins results of further samples. Only part of the results is shown; the hit share may differ from the screen's.

SMILES	FGF22 binding	UCH37 inh	Ecoli growth	LANA-H2B inh	ALR H2O2 inh	HNF4A DNA FP	Beta2AR agonist
CC(=O)OCC(COC(C)=O)OC(C)=O	i	-3.6	.	-0.3	-4.3	-3.4	7.6
COc1ccc(NC(=O)CN(Cc2ccccc2)S(C)(=O)=O)cc1	.	1.0	0.714	-0.1	-6.0	3.0	10.7
Cc1ccc(S(=O)(=O)CCC(=O)NCc2ccccc2)cc1	i	0.0	0.62	-3.9	-3.6	0.2	-4.3
CC(=O)N1c2ccc(S(=O)(=O)NCC3CCC(C(=O)NCc4ccc(C)cc4)CC3)cc2CC1C (centres undefined)	i	3.7	0.683	3.4	1.0	2.9	9.3
Nc1ccc(-c2nc3ccc(C(=O)O)cc3s2)cc1	i	i	0.676	-11.8	98.6*	0.3	-2.9
COc1ccc(/C=N/NC(=O)c2nc(Cl)c(Cl)c(N)c2Cl)cc1COc1ccc(F)cc1F	.	.	.	7.3	.	4.6	26.6
COc1ccc(C2C(C(=O)Nc3ccc(F)cc3)=C(C)Nc3nc(CCCO)nn32)cc1 (centres undefined)	i	1.1	0.749	6.0	.	0.9	3.9
Cc1ccc(-n2ncc3c2CC(C)(C)CC3NC(=O)CCN2CCCCC2=O)cc1 (centres undefined)	i	0.6	0.686	-2.6	-1.1	-3.7	1.7
Cc1cccc(NC(=O)c2ccc(CN3CCc4ccccc4C3)cc2)c1C	i	0.0	0.688	-3.8	-7.9	1.6	-2.5
COc1ccc(CN(C2CC2)S(=O)(=O)c2ccccc2Br)cc1	i	-1.5	0.706	.	.	2.3	-0.7
COc1cc(/C=C/C(=O)c2ccc([N+](=O)[O-])o2)ccc1O	i	2.9	.	2.5	?	1.4	-24.7
N#Cc1c(SCC(=O)Nc2ccccc2C(F)(F)F)sc2c(O)cc(=O)[nH]c12	i	6.5	0.719	-4.2	15.8	-3.7	-2.2
COC(=O)c1ccc(NC(=S)NC2CC(C)(C)NC(C)(C)C2)cc1	.	-0.8	0.662	-3.2	-7.4	0.4	-2.6
O=C(Nc1ccccc1)c1ccc(COc2ccccc2)cc1	i	-1.0	0.733	10.2	0.3	3.0	5.1
COC(=O)c1nc(-c2ccc(C)cc2)oc1N(C)C	.	-131.0	0.602	9.1	54.7	-1.9	-5.3
C=CCn1c(COc2ccc(Cl)cc2)nnc1SCC(=O)Nc1ccc(S(N)(=O)=O)cc1	i	4.5	0.673	2.0	-6.6	0.7	8.3
CCCCC(NC(=O)Cc1c(C)c2cc3c4c(oc3c(C)c2oc1=O)CCCC4)C(=O)O (centres undefined)	i	-37.2	0.652	-1.3	63.9	4.5	-5.0
CCCCOC(=O)c1ccc(NC(C)=O)cc1	.	4.4	0.729	-1.7	1.7	4.5	27.5
CC1=CC(C)(C)NC(=S)N1c1ccccc1C	i	0.1&-20.9	0.683&0.672	3.6	-0.5	0.5&2.1	-6.0&6.5
CCCCn1c(N)c(N(CCOC)C(=O)COC(=O)CCOc2ccccc2C)c(=O)[nH]c1=O	.	2.8	0.656	1.4	.	0.8	-0.7
CN(/C(=N/S(=O)(=O)c1ccccc1)c1ccccc1)S(=O)(=O)c1ccccc1	i	.	.	0.4	-3.5	0.3	-8.8
Cc1ccc(-c2noc(CSc3nnc(Cc4ccccc4)n3-c3ccc(Cl)cc3)n2)cc1	i	0.6	0.782	2.2	-3.8	1.8	13.5
C=CCn1c(-c2cc(OC)cc(OC)c2)n[nH]c1=S	.	3.0	0.73	-9.1	95.8*	-2.4	5.9
CCC(C)N1CCCC1C(=O)Nc1c(C)cc(C)cc1C (centres undefined)	.	2.6	0.714	2.7	-3.3	-4.0	2.9
C/C=C/C(=O)N[C@@H]1c2ccccc2CC[C@@H]1OCc1ccccc1	i	3.0	0.688	.	.	-2.5	-4.9

Only LANA-H2B inh, FGF22 binding and UCH37 inh (three entries from above):
SMILES	LANA-H2B inh	FGF22 binding	UCH37 inh
COc1ccc(NC(=O)CN(Cc2ccccc2)S(C)(=O)=O)cc1	-0.1	.	1.0
Cc1ccc(S(=O)(=O)CCC(=O)NCc2ccccc2)cc1	-3.9	i	0.0
CC(=O)N1c2ccc(S(=O)(=O)NCC3CCC(C(=O)NCc4ccc(C)cc4)CC3)cc2CC1C (centres undefined)	3.4	i	3.7

Further records:
SMILES	FGF22 binding	UCH37 inh	Ecoli growth	LANA-H2B inh	ALR H2O2 inh	HNF4A DNA FP	Beta2AR agonist
COc1ccc(-n2c(SCc3ccc([N+](=O)[O-])cc3)nnc2-c2ccc(C)cc2)cc1	i	2.5	0.701	2.0	-5.8	-1.1	-11.9
N#CC1=C(N)OC2=C(C(=O)CC(c3ccccc3)C2)C1c1ccoc1 (centres undefined)	.	-3.7	0.704	1.4	39.2	-1.1	2.3
Cc1ccc(C(=O)NCCCN2CCOCC2)cc1	.	.	.	-1.2	0.3	1.4	1.4
CSCCC(NC(=O)c1ccccc1Br)C(=O)NNC(=O)c1ccco1 (centres undefined)	i	2.2	0.614	-1.8	-6.0	-2.4	-3.8
Cc1ccccc1NC(=O)c1cccc(NC(=O)c2c(C(=O)O)cccc2[N+](=O)[O-])c1	i	2.5	0.72	5.2	-22.1	-1.3	-5.7
COc1ccc(CNC(=O)C2CCN(c3nc(-c4ccccc4)nc4c3CCC4)CC2)cc1	i	0.0	0.745	-3.0	-13.5	2.1	6.5
NC1=NC[C@H](Cc2ccc(O)cc2)N1CCc1cc(C(F)(F)F)cc(C(F)(F)F)c1	i	0.5	.	7.4	20.9	0.8	-3.2
CCCCCCN1CC(=O)N2Cc3[nH]c4ccccc4c3C[C@H]2C1=O	i	2.9	0.678	-5.6	0.5	1.4	5.2
Cc1ccc(C(=O)c2sc(Nc3ccccc3)c(C#N)c2N)cc1	.	-18.8	0.681	3.6	0.1	-0.1	-10.5
CC(C)n1cnnc1SCC(=O)NC(=O)c1ccccc1	i	2.1	0.715	-3.1	3.8	1.4	-6.2
CC(=O)Nc1ccc(S(=O)(=O)NCc2ccc3[nH]c(C)cc3c2)cc1	i	1.5	0.782	2.8	.	0.4	14.5
Cc1ccc(NC(=O)COC(=O)C2CC(=O)N(Cc3ccccc3)C2)cc1F (centres undefined)	i	2.3	0.705	-5.3	-4.5	2.7	3.3
COc1ccc(S(=O)(=O)N2CCN(CC(O)COc3ccc(C#N)cc3)CC2)cc1OC (centres undefined)	i	1.3	0.683	0.3	.	2.7	2.7
Cc1cccc(-n2ncc3c(NCc4cccnc4)ncnc32)c1	i	5.7	0.717	-4.7	-1.7	2.2	4.3
COc1ccc(-c2csc(N3C(=O)C4C5c6ccccc6C(c6ccccc65)C4C3=O)n2)cc1 (centres undefined)	.	6.7	0.713	0.6	0.3	-0.5	-1.3
COc1ccc(CNCCC(c2ccccc2)c2ccc3c(c2)OCO3)cc1 (centres undefined)	i	1.7	0.649	-8.9	-14.2	2.5	20.6
Cc1ccc(C(C)C)c(OCC(=O)NNC(=O)Nc2ccccc2)c1	i	1.7	0.718	-5.8	10.9	-1.9	-2.1
CC(=C\c1ccccc1)/C=C1/SC(=O)N(CCCC(=O)Nc2ccc(C(=O)O)cc2)C1=O	i	12.6	0.66	-1.9	97.1*	4.3	-4.1
COc1ccc(C(=O)COC(=O)Cn2c(C)csc2=O)c(OC)c1	i	-0.6	0.68	6.0	-4.9	-3.3	-3.7
CCCC(=O)C1=C(O)C(C(=O)OC)C(C)(C)CC1=Nc1ccc(OC)cc1 (centres undefined)	.	2.9	0.678	2.4	-12.9	6.1	2.9
Clc1ccc(Cc2nc(-c3cccnc3)no2)cc1	.	4.4	0.64	-1.9	-7.4	1.3	-2.2
C[C@H](CO)N1C[C@H](C)[C@@H](CN(C)S(C)(=O)=O)Oc2ccc(NC(=O)NC3CCCCC3)cc2C1=O	i	0.6	.	-0.9	-9.7	-5.0	-7.2
COC(=O)c1cc2occc2n1Cc1nc(-c2ccccc2F)oc1C	i	2.0	0.7	0.9	-6.7	-1.1	4.3
COc1ccc(CC(=O)NNC(=O)c2ccoc2C)cc1OC	i	1.2	0.625	-3.6	-5.2	-1.5	-1.9
CN(Cc1nc(Cc2cccc(F)c2)no1)CC1CCOCC1	i	1.5	0.702	1.7	-4.4	-1.1	-0.7

Next entries.
SMILES	FGF22 binding	UCH37 inh	Ecoli growth	LANA-H2B inh	ALR H2O2 inh	HNF4A DNA FP	Beta2AR agonist
Cc1cccc(C)c1OCC(O)CN1CCc2ccccc2C1 (centres undefined)	i	6.5	0.631	4.6	-8.3	-6.5	-0.1
Cc1ccc(C)c(NC(=O)CN(C)C(=O)CN2C(=O)C3CCCCC3C2=O)c1 (centres undefined)	i	4.4	0.693	0.4	1.6	-1.4	0.7
CN(C)C(CNC(=S)Nc1ccc(Cl)cc1)c1cccnc1 (centres undefined)	i	0.9	0.677	-2.3	4.2	0.7	-0.1
CC12CCC(C(=O)NNc3ccccc3)(OC1=O)C2(C)C (centres undefined)	i	1.8	0.707	1.1	9.3	-4.5	-7.5
Cc1cc(C)cc(NC(=S)NCCc2ccc(S(N)(=O)=O)cc2)c1	i	.	.	-2.6	-1.0	2.4	-3.5
COc1ccc(NC(=O)CSc2nc3ccccc3c(=O)n2CCNC(C)=O)c(OC)c1	.	-0.5	0.734	2.3	-5.4	3.2	-5.8
CCOC(=O)c1c(C)[nH]c(N=Nc2ccc(OC)cc2)c1C	i	5.1	0.644	5.8	-7.9	7.1	0.8
CCC(NC(=O)C1CCC1)c1ccc(C)cc1 (centres undefined)	.	3.0	0.678	3.4	-6.0	-3.2	11.8
COc1cccc(OC)c1C(=O)Nc1nc2cc3c(cc2s1)OCO3	i	-63.7	0.699	7.4	-5.0	-0.4	-1.4
CCCn1c(SCC(=O)OCc2ccccc2)nc2c1c(=O)n(C)c(=O)n2C	.	2.0	0.689	-1.7	-23.9	-3.9	-2.2
O=C(COC(=O)c1ccc(O)cc1O)NC1CCCCCC1	i	.	.	.	.	-2.6	-3.2
Cc1cccc(C)c1N1CCN(CCn2c(=S)[nH]c3ccccc3c2=O)CC1	i	2.6	0.671	2.2	1.9	-0.6	3.5
CC1=C(C(=O)NC2CC(C)(C)Cc3c2cnn3-c2cccc(F)c2)OCCO1 (centres undefined)	i	0.2	0.643	-1.5	96.7*	4.9	0.2
CCOC(=O)C1CCCN(C(=O)CCNS(=O)(=O)c2ccc3c(c2)CCC(=O)N3)C1 (centres undefined)	.	-0.3	0.651	3.3	-1.0	1.0	4.8
CCOc1ncccc1C(=O)OCC(=O)Nc1cc(S(=O)(=O)N2CCOCC2)ccc1Cl	.	6.0	0.716	2.5	-32.7	-2.7	-3.6
CCCCCCOC(=O)CCc1c(C)nc(N)[nH]c1=O	.	-0.4	0.634	-2.2	-5.8	0.7	4.9
COc1cc(OC)cc(C(=O)N2CCN(C3CCCCC3)CC2)c1	i	.	.	-2.8	-1.1	0.7	0.7
COCCn1c(SCC(=O)c2cccc(OC)c2)nnc1-c1ccco1	.	0.5	0.721	-3.0	93.0*	2.5	-7.4
O=[N+]([O-])c1ccc(NN=Cc2cccc([N+](=O)[O-])c2)cc1	i	9.2	0.7	.	.	3.7	3.5
Cc1noc(C)c1NC(=O)NCCN1CCN(Cc2ccccc2)CC1	i	0.6	0.677	6.3	5.2	1.3	6.5
Cc1cc(C(=O)COC(=O)Cc2n[nH]c(=O)c3ccccc23)c(C)n1-c1ccc2c(c1)OCCO2	i	2.2	0.716	0.3	-7.4	0.8	-12.7
COc1ccc(CCOC(=O)c2ccc(N)c([N+](=O)[O-])c2)cc1	i	-0.2	0.707	2.9	1.2	-1.6	0.9
